Sa growth inh – blocks Staphylococcus aureus growth. S. aureus RN4220 growth, OD600, 20 h, 42 °C; active compounds read low. AID 720641. relative growth, % (no concentration beside the values). 170,000 compounds, 0.53% hits;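 active = growth at 42 °C up to 50% and 20 or more points under that at 30 °C, or under 10% at both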;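 also: 300 nL library stock went into each well; scaled to the means of positive and negative controls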
HCMV NEC inh – disrupts HCMV UL50-UL53 complex binding | HTRF UL50-UL53 interaction, normalized percent inhibition | inhibition, % (concentration not given with the values) | 190,000 compounds, 0.15% hits | AID 1918969;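 active = both replicates at 50% or more, plus weaker picks with an unusually low signal ratio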;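 also: stock transfer was 100 nL into about 20 µL; 0% = negative control wells and 100% = wells with untagged competitor protein; inactives centre near -12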
GIV-Gai inh – inhibitors of GIV GBA-motif binding to rat Galpha-i3 | percent of control (FP), % (test concentration not listed) | 210,000 compounds, 0.42% hits | Galpha-i3/FITC-GIV peptide fluorescence polarization, 90 min; active compounds read low; scaled: aluminum fluoride 0%, vehicle 100% | P08753;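 active = replicate mean at 85% of control or lower, very high polarization wells dropped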;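 also: lower values mean more displacement of the GIV peptide from Galpha-i3; wells of about 15 µL received 100 nL stock; the first replicate is given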
Target sequence (P08753 whole entry, looked up): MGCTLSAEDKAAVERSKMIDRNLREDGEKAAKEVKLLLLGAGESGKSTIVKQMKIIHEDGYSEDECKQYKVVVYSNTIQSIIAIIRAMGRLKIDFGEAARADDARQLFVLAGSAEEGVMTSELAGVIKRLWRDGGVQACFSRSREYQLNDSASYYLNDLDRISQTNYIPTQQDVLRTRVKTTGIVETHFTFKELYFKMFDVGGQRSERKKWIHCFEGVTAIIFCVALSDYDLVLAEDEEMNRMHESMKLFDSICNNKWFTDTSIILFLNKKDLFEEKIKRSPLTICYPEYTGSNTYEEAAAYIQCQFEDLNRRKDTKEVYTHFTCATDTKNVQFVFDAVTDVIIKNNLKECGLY
Sa growth inh second temp – second read-out of Sa growth inh, no call of its own (marks repeat the call); relative growth, %; measured here: growth at 30 °C;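 optical density after 20 h as mean of two plates; 100% = untreated growth and lower means inhibition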
The depositor's hits bear a star; · = not tested or not shown; & = joins results of further samples.

SMILES	Sa growth inh	Sa growth inh second temp	HCMV NEC inh	GIV-Gai inh
O=C(CN1CCC(Cc2ccccc2)CC1)Nc1ccc2c(c1)OCCO2	79.9	90.7	-10.6	·
CCOC(=O)CSc1nc2c(c(=O)n1-c1ccc(C)cc1)C1(CCCC1)Cc1ccccc1-2	·	·	-20.1	105.4
COc1ccc(OC)c(C2C(C(=O)OC3CCCC3)=C(C)NC3=C2C(=O)CC(c2cccs2)C3)c1 (centres undefined)	·	·	1.0	107.2
O=C(c1cccc2ccccc12)N1CCOCC1	88.5	86.7	-19.8	·
Cc1cc(C)n(CCOc2nonc2N)n1	102.4	72.0	-17.9	99.3
CCCN(CCC)C(=O)c1sc2nc(C)nc(N3CCN(c4ccccn4)CC3)c2c1C	·	·	-9.2&0.4	105.8&99.6
CCOC(=O)C1CCCCN1S(=O)(=O)c1ccc2c(c1)CCCC(=O)N2 (centres undefined)	95.7	93.4	4.6	97.5
CC(C)(C)CC(=O)NC1CCCc2ccccc21 (centres undefined)	103.8	96.2	-9.2	·
O=C(O)CCN1C(=O)CC2(CCCCC2)C1=O	95.2	92.0	·	102.3
Nc1nc(SCc2cccnc2)[nH]c(=O)c1NC(=O)c1ccco1	98.1	83.3	-35.9	97.8
O=C(NCCC1=CCCCC1)c1ccc2c(c1)ncn2-c1cccc(F)c1	131.2	88.7	·	101.6
O=C(CSc1nnc2scc(-c3ccc(Cl)cc3)n12)Nc1ccccc1F	107.5	80.3	-31.5	101.7
CN1N=C(C(=O)Nc2ccc3c(c2)CCC3)CCC1=O	77.3	87.9	-47.2	·
CCOC(=O)C1CCN(c2nnc(N3CCCCC3)c3ccccc23)CC1	·	·	12.8	103.8
O=C(O)CNS(=O)(=O)c1ccc(Cl)cc1	101.9	93.6	3.2	108.0
Cn1nnnc1SC(c1ccccc1)c1ccccc1	95.5	121.2	18.7	·
O=C(O)c1cccnc1SCC(=O)N1CCCc2ccccc21	99.6	106.2	-5.0	109.4
CCCCn1nnnc1CSc1nc2sc3c(c2c(=O)n1-c1cccc(OC)c1)CCC3	79.1	95.5	-19.0	·
Cc1cc(C)cc(N(CC(=O)N2CCC(C)CC2)S(=O)(=O)c2c(C)nn(C)c2C)c1	·	·	1.5	99.7
O=C1NC2(CCN(S(=O)(=O)c3cccs3)CC2)Oc2ccccc21	99.5	105.3	5.7	102.2
CCOC(=O)c1cc(Cn2c(=O)c(OCC)nc3cnccc32)on1	94.9	100.7	3.5	103.2
CN(C)c1ccc(NC(=O)CC2Sc3ccc(C(F)(F)F)cc3NC2=O)cc1 (centres undefined)	84.0	80.9	-22.8	101.4
COc1ccc2c(c1)Cc1sc(NC(=O)c3ccc(OC)c(Br)c3)nc1-2	96.8	77.3	·	100.7
O=C1C(Cc2ccccc2)S/C(=N/N=C/c2ccco2)N1c1ccccc1 (centres undefined)	106.2	89.0	-28.1	103.8
O=C(Nc1nc2nccc(-c3ccccc3)n2n1)c1ccccc1	101.1	87.3	-9.6	106.9
O=C(NCCc1nc2ccccc2n1CCCOc1ccc(Cl)cc1)c1ccco1	101.1	87.7	-9.4	100.5
Cc1ccc(S(=O)(=O)NCCc2nnc3ccc(SCc4ccccc4C)nn23)cc1	99.0	84.2	·	101.5
CN(CCCOc1ccc(Cc2ccccc2)cc1)CCC(=O)O	·	·	-9.5	102.0
COc1ccc(CNC(=O)c2ccc(NC(=O)N3CCCCc4ccccc43)cc2)cc1	89.4	86.1	·	96.2
CCOc1ccc(C(=O)NCC(c2ccco2)S(=O)(=O)c2cccs2)cc1 (centres undefined)	96.1	86.1	·	93.4
Cc1nc(C#N)c(N/N=C/C=C/c2ccccc2)o1	109.5	94.8	-26.8	111.6
CCOc1ccc(NC(=O)CSc2nc3c(oc4ccccc43)c(=O)n2-c2cc(C)cc(C)c2)cc1	99.4	85.0	-30.4	96.9
CCOC(=O)CN1CC23C=CC(O2)C(C(=O)N2CCCC2)C3C1=O (centres undefined)	90.9	92.2	-7.7	96.3
CN1C(=O)c2ccc(N3CCCC3)cc2C1=O	109.7	72.3	-75.7	108.2
CCOC(=O)C(c1ccccc1)C(Nc1ccc(F)cc1)c1ccccn1 (centres undefined)	104.0	94.0	4.1	100.3
Cn1c(=O)c2cc(S(=O)(=O)NCCC(=O)NC3CCCCCCC3)ccc2n(C)c1=O	102.1	93.2	4.7	107.5
O=C(Oc1cccc(Br)c1)c1cc(-c2ccccc2)on1	·	·	-18.0	100.5
CC(Oc1ccc2c(C(F)(F)F)cc(=O)oc2c1)C(=O)NN (centres undefined)	74.0	86.1	-26.0	·
O=c1[nH]c(CSc2nc3ccccc3o2)nc2c1cnn2-c1ccccc1	94.3	94.1	-15.2	·
COc1ccc(CCNC(=O)NC(C)(C)C)cc1OC	90.7	81.9	-37.4	100.4
Cc1noc(C)c1S(=O)(=O)Nc1c(-n2cnnc2)nn(C)c1C	·	·	-26.1	99.1
CS(=O)(=O)Nc1ccc(N2CCN(C3CCCCC3)CC2)c(C(=O)O)c1	·	·	1.6	104.6
Cc1ccnc2nc(C(=O)NN3C(=O)c4ccccc4C3=O)nn12	96.5	92.4	-32.2	·
Brc1ccc(/C=N/c2nc3ccccc3n2CCN2CCCCC2)cc1	115.2	81.3	·	104.8
CCOC(=O)C1CSC(CC(=O)Nc2ccccc2)C(=O)N1 (centres undefined)	83.2&107.2	98.6&86.5	-11.4&-22.2	104.5&101.7
O=c1c2c(nc3cc(-c4ccco4)[nH]n13)CSC2	95.4	83.2	-38.1	100.3
COc1cc2c(cc1OC)CC1(C2)c2ccccc2CN1C	102.7	88.2	-11.7	·
Cc1ccc(NC(=O)CSc2nc(-c3ccc(C(C)C)cc3)no2)cc1	·	·	-12.1	96.6
Cc1ccc2c(c1)CCCN2CC(=O)Nc1ccccc1	100.4	79.3	-19.2	121.7
CCOc1ccc(-c2cc(-c3nc(-c4ccc(OC)c(OC)c4)no3)[nH]n2)cc1	83.6	74.1	·	102.9

19 compounds out of the list, ordered by length of the SMILES, low to high.
SMILES	Sa growth inh	Sa growth inh second temp	HCMV NEC inh	GIV-Gai inh
CN1C(=O)c2ccc(N3CCCC3)cc2C1=O	109.7	72.3	-75.7	108.2
COc1ccc(CCNC(=O)NC(C)(C)C)cc1OC	90.7	81.9	-37.4	100.4
Cc1ccc2c(c1)CCCN2CC(=O)Nc1ccccc1	100.4	79.3	-19.2	121.7
Cc1nc(C#N)c(N/N=C/C=C/c2ccccc2)o1	109.5	94.8	-26.8	111.6
COc1cc2c(cc1OC)CC1(C2)c2ccccc2CN1C	102.7	88.2	-11.7	·
CN(CCCOc1ccc(Cc2ccccc2)cc1)CCC(=O)O	·	·	-9.5	102.0
O=C(Oc1cccc(Br)c1)c1cc(-c2ccccc2)on1	·	·	-18.0	100.5
CCOC(=O)C1CSC(CC(=O)Nc2ccccc2)C(=O)N1 (centres undefined)	83.2&107.2	98.6&86.5	-11.4&-22.2	104.5&101.7
Brc1ccc(/C=N/c2nc3ccccc3n2CCN2CCCCC2)cc1	115.2	81.3	·	104.8
Cc1ccnc2nc(C(=O)NN3C(=O)c4ccccc4C3=O)nn12	96.5	92.4	-32.2	·
Cc1noc(C)c1S(=O)(=O)Nc1c(-n2cnnc2)nn(C)c1C	·	·	-26.1	99.1
O=C(NCCc1nc2ccccc2n1CCCOc1ccc(Cl)cc1)c1ccco1	101.1	87.7	-9.4	100.5
CCOc1ccc(C(=O)NCC(c2ccco2)S(=O)(=O)c2cccs2)cc1 (centres undefined)	96.1	86.1	·	93.4
CS(=O)(=O)Nc1ccc(N2CCN(C3CCCCC3)CC2)c(C(=O)O)c1	·	·	1.6	104.6
Cc1ccc(S(=O)(=O)NCCc2nnc3ccc(SCc4ccccc4C)nn23)cc1	99.0	84.2	·	101.5
COc1ccc(CNC(=O)c2ccc(NC(=O)N3CCCCc4ccccc43)cc2)cc1	89.4	86.1	·	96.2
CCOc1ccc(-c2cc(-c3nc(-c4ccc(OC)c(OC)c4)no3)[nH]n2)cc1	83.6	74.1	·	102.9
Cn1c(=O)c2cc(S(=O)(=O)NCCC(=O)NC3CCCCCCC3)ccc2n(C)c1=O	102.1	93.2	4.7	107.5
CCOc1ccc(NC(=O)CSc2nc3c(oc4ccccc43)c(=O)n2-c2cc(C)cc(C)c2)cc1	99.4	85.0	-30.4	96.9

(continued)
SMILES	Sa growth inh	Sa growth inh second temp	HCMV NEC inh	GIV-Gai inh
O=C(NCc1cccnc1)c1ccc(COc2cccc3ccccc23)o1	104.8	65.4	·	112.3
Cc1ccc(C)c(NC(=O)CC2NCCNC2=O)c1 (centres undefined)	83.5	92.4	4.0	98.5
CCC(CC)C(=O)N(c1ccc(OC)cc1OC)C1C=CS(=O)(=O)C1 (centres undefined)	99.8	90.8	-10.7	97.8
CCNC(=O)C(C)Sc1ccccc1 (centres undefined)	102.1	104.1	-4.7	101.8
CCCS(=O)(=O)N1CCN(C(=O)COc2cccc(C)c2)CC1	103.7	77.8	2.3	98.1

Screening results from PubChem BioAssay.
